# Compound activity as filed in PubChem BioAssay.
# KCNQ2 pot = KCNQ2 (rat) channel potentiation; CHO-K1 KCNQ2, FluxOR thallium flux fluorescence; hits give high values; B-score at 10 µM; 310,000 tested, 0.54% active;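 active = fluorescence ratio B-score at least 3 SD of library B-scores, with initial fluorescence B-score within 3 SD, cut at about 5.3 in these data; same plate scores as AID 2156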;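 also: B-score of peak minus minimum over baseline fluorescence ratio after K+ and Tl+ stimulus; positive B-score means potentiation of KCNQ2 with more thallium influx and brighter signal; only the inactives scoring about 0 or higher are listed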
# Target sequence (O88943 whole entry, looked up): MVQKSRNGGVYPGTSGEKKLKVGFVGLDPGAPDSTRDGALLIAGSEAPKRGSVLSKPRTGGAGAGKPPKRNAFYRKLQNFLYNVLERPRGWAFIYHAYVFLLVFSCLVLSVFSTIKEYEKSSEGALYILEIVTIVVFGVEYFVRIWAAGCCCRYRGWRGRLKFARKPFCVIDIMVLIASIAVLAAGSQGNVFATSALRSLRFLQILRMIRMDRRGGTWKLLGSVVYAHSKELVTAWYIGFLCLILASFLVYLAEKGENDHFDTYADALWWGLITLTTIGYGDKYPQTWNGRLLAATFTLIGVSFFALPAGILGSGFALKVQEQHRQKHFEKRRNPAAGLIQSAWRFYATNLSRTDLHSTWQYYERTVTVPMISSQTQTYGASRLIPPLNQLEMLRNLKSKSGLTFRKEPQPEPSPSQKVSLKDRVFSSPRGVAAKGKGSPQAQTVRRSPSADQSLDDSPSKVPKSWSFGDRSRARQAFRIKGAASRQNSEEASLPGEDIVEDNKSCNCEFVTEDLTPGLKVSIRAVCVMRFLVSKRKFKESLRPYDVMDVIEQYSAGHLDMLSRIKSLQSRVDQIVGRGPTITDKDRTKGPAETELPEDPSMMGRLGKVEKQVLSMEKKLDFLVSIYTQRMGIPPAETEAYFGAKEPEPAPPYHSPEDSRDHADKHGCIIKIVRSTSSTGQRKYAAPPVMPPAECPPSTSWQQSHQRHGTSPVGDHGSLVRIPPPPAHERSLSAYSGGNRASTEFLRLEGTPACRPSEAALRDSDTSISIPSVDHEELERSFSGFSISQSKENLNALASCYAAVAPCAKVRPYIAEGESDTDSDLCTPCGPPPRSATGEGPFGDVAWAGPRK
# KCNQ2 pot baseline = further read-out of KCNQ2 pot, marked with its call; B-score; compound at 10 µM; measured here: initial fluorescence intensity artifact check;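 brightness before thallium and not channel activity; 0 = typical well and far values either way flag optical interference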
# Numbers without * were called inactive. These rows are one share of the data; count on the stated rates, not on these rows.
compound,KCNQ2 pot,KCNQ2 pot baseline
CC(C(=O)OCC(=O)Nc1cccc(S(=O)(=O)N2CCOCC2)c1)N1C(=O)c2ccccc2C1=O (stereo unspecified),1.68,0.48
O=C(Cn1cnc2c(cnn2-c2ccc(F)cc2)c1=O)N1CCN(c2ccccc2F)CC1,0.98,0.67
O=C(CN1CCOCC1)NCC12CC3CC(CC(C3)C1)C2,1.3,0.43
CCCCNC(=O)CSc1nc2ccccc2c(=O)n1Cc1ccc2c(c1)OCO2,0.23,-0.24
CC(C)(C)n1[nH]c2c3c(ccc2c1=O)C(=O)c1ccccc1C3=O,0.61,0.92
COC(=O)c1cc(-c2ccc(OC)cc2F)nc2nc(SC)[nH]c(=O)c12,0.88,0.07
CCCCC(=O)Nc1sc2c(c1C#N)CC(C)(C)OC2,0.01,1.72
C=CCn1c(=N)n(CC(O)COc2ccccc2OC)c2ccccc21 (stereo unspecified),2,-0.96
CC(Sc1nc(-c2ccccc2)cc(C(F)(F)F)n1)C(=O)NCc1ccco1 (stereo unspecified),0.39,-1.52
NC(=O)COC(=O)c1cc(-c2cccs2)nn1-c1ccccc1,0.02,-0.25
CC(C)(C)SCCNC(=O)/C=C/c1ccc(F)cc1,0.54,1.27
CC1CN(C(=O)c2cn3ccccc3n2)CC(C)O1 (stereo unspecified),0.02,-0.46
S=c1[nH]c2ccc(Cl)cc2s1,20.9*,0.04*
O=C(Nc1cc(Cl)ccc1-n1cncn1)c1cc(F)c(F)c(F)c1F,1.37,0.78
COc1ccc(Cl)cc1C(=O)NN=C1CCCC1,1.34,-0.53
Cc1ccccc1NS(=O)(=O)c1cc(C(=O)Nc2cccc(N(C)S(C)(=O)=O)c2)ccc1C,0.18,-0.04
CC(NC(=O)c1ccc(OC2CCN(Cc3ccccn3)CC2)cc1)c1nccs1 (stereo unspecified),0.02,0.59
COc1cc(-n2c(=O)c3ccccc3n(CC(=O)c3ccc(F)cc3)c2=O)cc(OC)c1OC,0.01,0
C=CCN(c1cccc(C(F)(F)F)c1)S(=O)(=O)c1cccc(C(=O)OCC(=O)NC(N)=O)c1,0.31,-0.73
CC(=O)c1c(C(C)=O)c(C)n(NC(=O)c2ccccc2Cl)c1C,0.76,0.01
Cc1ccc(C(=O)OCC(=O)N2CCC(C)CC2)cc1S(=O)(=O)N1CCCCC1,2.26,-0.75
CCSC1=NCCN1C(=O)Cc1ccc(-c2ccccc2)cc1,1.12,0.01
CCc1ccc(S(=O)(=O)Nc2cc3c(cc2N2CCCCC2)n(C)c(=O)c(=O)n3C)cc1,0.06,-1.03
O=S(=O)(NCc1cccs1)c1ccc(Br)s1,0.82,0.29

# Reformatted with values under each structure: part of the list above.
# Values run as follows: KCNQ2 pot | KCNQ2 pot baseline
> CC(=O)c1c(C(C)=O)c(C)n(NC(=O)c2ccccc2Cl)c1C
 : 0.76 | 0.01
> Cc1ccc(C(=O)OCC(=O)N2CCC(C)CC2)cc1S(=O)(=O)N1CCCCC1
 : 2.26 | -0.75

# (cont.)
compound,KCNQ2 pot,KCNQ2 pot baseline
CCc1ccccc1NC(=O)COc1cccc(-n2cnnn2)c1,1,2.15
Cc1c(Cl)cccc1NC(=O)CCC(=O)NNC(=O)c1ccccc1Cl,0.9,-0.59
Cc1cccc(N2C(=O)C3C4C=CC(CC4)C3C2=O)c1 (stereo unspecified),0.41,0.89
CCOC(=O)c1cc(CC)sc1/N=C/C1C(=O)CC(C)(C)CC1=O,0.59,0.02
COc1ccc(Cl)cc1C(=O)NCC(c1ccco1)N(C)C (stereo unspecified),1.95,2.53
Cc1cc(C)nc(N2CCCC(C(=O)NCc3ccccc3F)C2)n1 (stereo unspecified),0.38,-2.07
CCOC(=O)c1ccc(NC(=O)CCn2nnc3ccccc32)cc1,0.14,-0.06
CCSc1cc(C)nc2c(-c3ccccc3)cnn12,0.56,0.02
CC(=O)Nc1ccc(NC2=CC(=O)CC(C)(C)C2)cc1,0.43,-1.5
Cc1ccccc1/C=C/c1cccc[n+]1C,2.07,-0.85
CCN(CC(=O)NC(C)(C)C)Cc1cc(=O)n2c(-c3ccccc3)csc2n1,0.13,0.65
Oc1c(Cl)cc(Cl)cc1/C=N/c1nc(-c2ccc(Cl)cc2)cs1,2.21,-1.19
O=C(CCN1C(=O)c2ccccc2C1=O)Nc1ccc(S(=O)(=O)N2CCOCC2)cc1,0.05,0.68
COc1cc(/C=N/NC(=O)CCc2ccccc2)ccc1O,0.95,0.72
COCCCn1c(=S)[nH]c(C)c(C)c1=O,0.39,-2.01
O=S(=O)(NC1CCCCC1Sc1ncccn1)c1ccc(Cl)cc1 (stereo unspecified),0.57,-1.96

# Two entries from above in another layout.
# Second line of a record: KCNQ2 pot | KCNQ2 pot baseline
CCOC(=O)c1ccc(NC(=O)CCn2nnc3ccccc32)cc1
 : 0.14 | -0.06
CCSc1cc(C)nc2c(-c3ccccc3)cnn12
 : 0.56 | 0.02

# Full records, looked up by structure. Screens in order: KCNQ2 pot, KCNQ2 pot baseline
# Entry for `CCN(CC(=O)NC(C)(C)C)Cc1cc(=O)n2c(-c3ccccc3)csc2n1` : 0.13, 0.65
# Entry for `COc1cc(/C=N/NC(=O)CCc2ccccc2)ccc1O` : 0.95, 0.72
# Entry for `CC(=O)Nc1ccc(NC2=CC(=O)CC(C)(C)C2)cc1` : 0.43, -1.5
# Entry for `Cc1ccccc1/C=C/c1cccc[n+]1C` : 2.07, -0.85
# Entry for `O=S(=O)(NC1CCCCC1Sc1ncccn1)c1ccc(Cl)cc1` (stereo unspecified) : 0.57, -1.96

# Remaining list, next part:
compound,KCNQ2 pot,KCNQ2 pot baseline
CCOC(=O)CCCNC(=O)CCNC(=O)c1ccc(OCCC(C)C)cc1,1.36,-0.23
Cc1ccccc1C(=O)Nc1nc(=S)ss1,4.14,-0.01
COc1cccc(NC(=O)C2CCN(S(=O)(=O)c3ccc4c(c3)NC(=O)C(C)S4)CC2)c1 (stereo unspecified),2.16,-1.05
CCOc1ccc(NC(=O)NNC(=O)c2ccc(Cl)cc2Cl)cc1,0.44,-0.37
CC1CCN(C(=O)CNC(=O)c2cccc(OC(F)F)c2)CC1,0.15,0.05
CN(C)c1nc(N(C)C)nc(N(C#N)CN2C(=O)c3ccccc3S2(=O)=O)n1,0.47,0.04
Cc1ccc2nc(NC(=O)Cc3cccs3)sc2c1,1.16,0.24
CCOC(=O)c1sc(NC(=O)CSc2nnnn2-c2ccc(C)cc2)c(C(=O)OCC)c1C,0.79,-0.42
CCCCN(C(=O)NC(=O)Nc1ccc(C)cn1)S(C)(=O)=O,1.01,-0.19
Cc1ccc(C)c(N(C)C(=O)c2ccc3c(=O)n4c(nc3c2)CCCCC4)c1,0.68,0.12
COc1cc(-c2nc3cnccn3c2NC(C)(C)CC(C)(C)C)ccc1O,0.05,-2.15
Cc1cc(C)c(NC(=O)CNC(=O)COC(=O)CN2C(=O)NC3(CCCC3)C2=O)c(C)c1,1.66,1.81
COc1ccc(OC)c(C2C3=C(COC3=O)Nc3cc4c(cc32)OCO4)c1 (stereo unspecified),1.13,0.65
Cc1ccc(N2CCN(S(=O)(=O)c3ccc(-n4cnnn4)cc3)CC2)c(C)c1,0.16,1.11
OCc1ccccc1NC(=S)Nc1cccnc1,0.24,-0.23
O=c1oc2ccccc2n1Cc1ccccc1,1.62,0.34
O=C(NCc1cccc(Cl)c1)c1ccc2c(c1)SC1=NS(=O)(=O)CCN12,1.35,-0.24
O=C(O)c1ccc2c(c1)N(Cc1ccccc1)C(=O)c1ccccc1S2,1.69,-1.26
CCSc1nnc(NC(=O)Nc2cccc(C)c2)s1,0.13,-0.67
CC(C)Cn1c(N)c(C(=O)NCCN2CCOCC2)c2nc3ccccc3nc21,0.33,-0.08
CCN(CC)c1nc2c(c(=O)[nH]c(=O)n2C)n1Cc1ccccc1Cl,0.05,-0.08
COc1ccc(CC(=O)NCCS(=O)(=O)N2CCN(c3ccccc3)CC2)cc1OC,1.72,-0.05
COC(=O)/C=C1\SC(N2CCOCC2)=C(c2ccc(OC)cc2)C1=O,0.56,-0.04
CC(=O)OC(C(=O)NC1CCCCC1)c1cccc(C)c1 (stereo unspecified),1.88,0.95
O=C(O)c1ccn(Cn2cnc3ccccc32)n1,0.04,-0.11
Cc1cc(/C=C(\C#N)C(=O)NCc2cccs2)c(C)n1-c1ccc([N+](=O)[O-])cc1,0.96,-0.47
COc1ccc(C2=NO[C@@H]3C(=O)N(c4cccc(C)c4C)C(=O)[C@H]23)cc1OC,0.01,-0.13
O=C1CC(c2ccco2)CC2=C1C=Nc1ccccc1N2 (stereo unspecified),1.16,0.59
CC(=O)c1ccc(S(=O)(=O)NCCc2csc(-c3cccnc3)n2)cc1,1.11,0.36
Cc1cccc(C(=O)NCCc2nnc(SCC(=O)Nc3nc(C)cs3)n2C)c1,0.25,1.64
CCC1(C)Cc2c(sc3nc(SC)nc(N)c23)CO1 (stereo unspecified),1.05,-0.78
COc1ccccc1NC(=O)CN1CCN(C(=O)C2CCCO2)CC1 (stereo unspecified),0.14,-0.87

# Next results
compound | KCNQ2 pot | KCNQ2 pot baseline
CC1CN(C(=O)COC(=O)c2c(Cl)cccc2Cl)CC(C)O1 (stereo unspecified) | 0.34 | -0.04
O=C(CCS(=O)(=O)c1ccc(Cl)cc1)OCC(=O)N1CCCCC1 | 0.6 | -2.4
COc1ccc(-n2nc(C(=O)NCC(=O)N3CCCC3)c3ccccc3c2=O)cc1Cl | 1.62 | 0.41
COc1ccc(-c2nn(-c3ccccc3)cc2C(=O)Nc2ccc(C(=O)O)cc2)cc1OC | 1.27 | -1.78
COc1cc(NC(=O)C/C(C)=N/NC(=O)c2cccc(O)c2)c(OC)cc1Cl | 0.71 | -0.38
Cc1[nH]c2ccccc2c1N=Nc1ccccc1C(=O)O | 3.28 | -0.56
CN(CC(=O)Nc1cccc(F)c1)C(=O)c1ccc(-n2cncn2)c([N+](=O)[O-])c1 | 0.28 | -0.39
CNC(=O)Cc1nc2ccccc2n1CC(=O)Nc1cc(C)cc(C)c1 | 0.21 | 3.55
O=C(CN1C(=O)NC2(CCCC2)C1=O)OCc1ccc(Br)cc1 | 0.77 | -0.02
CCOC(=O)c1c(C)[nH]c(C)c1S(=O)(=O)NCc1ccc(OCC)cc1 | 0.19 | -2.42
O=C(c1ccccc1)N1CCCC(C(=O)N2CCCCCC2)C1 (stereo unspecified) | 0.27 | 0.07
Cc1noc(C)c1S(=O)(=O)N1CCCCC1 | 0.8 | -3.15
CC1CCCCC1NC(=O)CNC(=O)c1ccco1 (stereo unspecified) | 0.67 | -1.01
COc1ccc(/C=C/C(=O)Nc2c(C(=O)O)[nH]c3ccccc23)cc1OC | 1.78 | 1.61
Cc1ccc(NC(=O)Nc2cccs2)cc1 | 0.87 | -0.77
COc1ccc(OC)c(S(=O)(=O)Nc2ccc(O)c(Sc3ncn[nH]3)c2)c1 | 0.09 | 0.08
Cc1nc(-c2cccnc2)sc1C(=O)Nc1ccc(Cl)cc1 | 0.49 | -1.08
Cc1ccc(NC(=O)C(C)OC(=O)Cc2c[nH]c3ccccc23)cc1 (stereo unspecified) | 0.34 | -0.71
CCCN1C(=O)C(O)(C/C(C)=N/O)c2ccccc21 (stereo unspecified) | 0.58 | -0.35
CCOC(=O)c1cnc(SCC(=O)NCc2cccs2)nc1N | 1.24 | -0.86
Cc1cc(C)n(-c2ccc(NC(=O)C3CCN(Cc4cnc(C)s4)CC3)cc2)n1 | 0.99 | 0.13
O=C(CN1CCN(C(=O)C2COc3ccccc3O2)CC1)Nc1ccccc1 (stereo unspecified) | 0.87 | 2.8
COCCN(CC(=O)NCC1CCCO1)C(=O)CCC(=O)Nc1cc(C)on1 (stereo unspecified) | 0.11 | 1.35
O=C(NCc1cc([N+](=O)[O-])ccc1O)c1cccnc1Sc1ccccc1Cl | 3.22 | -0.01
NS(=O)(=O)c1ccc(CCNS(=O)(=O)c2cccs2)cc1 | 0.03 | -0.77
COC(CNS(=O)(=O)c1ccc(S(=O)(=O)N2CCCC2)cc1)OC | 1.24 | -0.03
COC(=O)c1cc(C)nc(N)c1C#N | 0.41 | 0.35
COc1cccc(N=c2oc3c(C)ncc(CO)c3cc2C(N)=O)c1 | 2.11 | -0.12
O=c1ccc2cc(S(=O)(=O)NCc3ccccc3)ccc2[nH]1 | 0.16 | 2.38
COc1ccc(/C=N/NC(=O)c2ccncc2)cc1Cn1nc([N+](=O)[O-])c(Br)c1C | 0.6 | -1.64
CC(C)C(NS(=O)(=O)c1ccccc1)C(=O)OCc1cc([N+](=O)[O-])cc2c1OCOC2 (stereo unspecified) | 0.17 | 0.6
Cc1ccc(-n2nc3c(c2NC(=O)c2c(F)cccc2Cl)CS(=O)(=O)C3)cc1C | 0.09 | 0.73
COc1ccc(-c2ccc(CO)o2)cc1N | 0.56 | -0.66
CC(C)n1c2ccccc2c2cc([N+](=O)[O-])ccc21 | 0.71 | -0.26
Cc1ccc(/C=N/NC(=S)NCCc2ccccc2)s1 | 2.12 | 1.04
COc1ccccc1NC(=O)N1CCN(c2ccnc3cc(Cl)ccc23)CC1 | 0.02 | -0.01
CS(=O)(=O)N(CC(=O)Nc1cc(Cl)ccc1Cl)c1ccccc1 | 1.86 | -0.66
O=[N+]([O-])c1ccccc1N/N=C\c1ccccc1F | 2.18 | -0.57
COc1ccc(/C(O)=C2\C(=O)C(=O)N(c3cc(C)on3)C2c2ccccc2OC)cc1 (stereo unspecified) | 1.33 | 1.56
CC(=O)NC(Cc1ccccc1F)C(=O)NC1CCN(C(=O)Nc2ccc(C)cc2)CC1 (stereo unspecified) | 0.92 | -0.61
COc1ccc(OC)c(NC(=O)CN2C(=O)NC3(CCOc4ccccc43)C2=O)c1 (stereo unspecified) | 2.16 | 1.04
Cc1ccccc1C(=O)N/N=C/c1ccc(Sc2ccccn2)o1 | 0.1 | 1.37
O=C(c1c[nH]c2ccccc12)C(F)(F)F | 0.74 | 0.14
